Insulin prom inh: TRM-6 insulin promoter activity inhibition; TRM-6 cells (human fetal islet line), insulin promoter-eGFP reporter, imaging; reporter expression induced with tamoxifen; inhibition, % at 2 µM; actives 0.9% (n = 130,000);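 active = inhibition above the mean plus 3 SD, with well images judged a real hit on visual review, cut at about 60% in these data, passing the limit was not always enough; inconclusive = inhibition over the cutoff but images rejected on review; inactive = inhibition not above the cutoff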
HSV augment: HSV replication enhancement. HSV replication augmentation in cells, fold increase. maximum fold increase. actives 0.005% (n = 220,000). AID 1956;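 active = peak rise of 1.5-fold or more in the series; inconclusive = self-fluorescent or not available for retest; tested in PC3 cells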;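 also: first round at 10 µM; read as green reporter fluorescence; hits show the peak of a series up to 25 µM; 1 = signal of infected wells without compound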
GALR2 ag: activates the human galanin receptor 2; O43603; GALR2-expressing cells, agonist activation read-out; activation, %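 (tested at 5 µM)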; actives 0.48% (n = 140,000); AID 803;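 active = above mean plus 3 SD of all compounds, about 5% in these data, not always enough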;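 also: 0% = vehicle buffer wells and 100% = reference agonist at full effect; tested in CHO reporter cells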
Target sequence (O43603 whole entry, looked up): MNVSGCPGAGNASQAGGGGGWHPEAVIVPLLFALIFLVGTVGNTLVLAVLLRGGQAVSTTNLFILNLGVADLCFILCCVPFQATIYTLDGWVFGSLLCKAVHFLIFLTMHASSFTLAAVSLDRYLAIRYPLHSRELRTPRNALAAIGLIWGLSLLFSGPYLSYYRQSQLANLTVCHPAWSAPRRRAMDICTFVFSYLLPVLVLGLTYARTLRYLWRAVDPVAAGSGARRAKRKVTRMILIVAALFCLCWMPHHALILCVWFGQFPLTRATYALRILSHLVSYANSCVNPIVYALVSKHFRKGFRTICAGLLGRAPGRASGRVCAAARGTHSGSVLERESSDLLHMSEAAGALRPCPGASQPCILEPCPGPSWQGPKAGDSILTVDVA
RGS16-Gao HTS: regulators of human RGS16-Galphao interaction | bead-based flow cytometry RGS16-Galphao binding, fluorescence; actives lie on both sides | AID 1441 | O15492+P09471 | binding response (% of control), % at 10 µM | actives 0.38% (n = 220,000);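 active = below 25% or above 175%, edge rows of some plates excepted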;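 also: Galphao activated by GDP with aluminum fluoride before binding; 100% = wells without compound and 0% = beads without RGS; some results beyond the cut were filed as inactive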
Target sequence (O15492 whole entry, looked up): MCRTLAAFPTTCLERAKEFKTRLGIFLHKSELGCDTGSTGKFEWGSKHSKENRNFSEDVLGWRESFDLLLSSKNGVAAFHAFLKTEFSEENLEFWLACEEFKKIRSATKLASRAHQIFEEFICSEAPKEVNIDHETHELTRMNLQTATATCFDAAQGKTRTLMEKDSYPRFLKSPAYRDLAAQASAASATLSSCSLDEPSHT
Target sequence (P09471 whole entry, looked up): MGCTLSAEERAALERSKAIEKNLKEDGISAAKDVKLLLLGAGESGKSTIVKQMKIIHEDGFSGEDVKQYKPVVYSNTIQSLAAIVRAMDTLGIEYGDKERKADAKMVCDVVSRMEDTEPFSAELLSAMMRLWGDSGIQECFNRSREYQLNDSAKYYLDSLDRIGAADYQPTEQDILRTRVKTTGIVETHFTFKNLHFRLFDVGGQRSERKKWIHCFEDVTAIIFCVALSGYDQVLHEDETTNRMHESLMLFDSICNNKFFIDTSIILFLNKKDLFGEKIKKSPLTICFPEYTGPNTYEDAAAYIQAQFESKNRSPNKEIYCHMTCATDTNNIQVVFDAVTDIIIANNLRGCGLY
PKD1 inh: blocks activity of human protein kinase D1; PKD1 kinase fluorescence polarization assay; Q15139; actives 0.056% (n = 200,000); AID 797; inhibition, %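 (about 10 µM by stock and volumes)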;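 active = inhibition of 50% or more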;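 also: controls were vehicle for no effect and a reference inhibitor for full effect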
Insulin prom inh cell count: also measured in Insulin prom inh; calls as there; normalized cell count, %; measured here: cell count, toxicity; reference of the scale not given here;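 cells exposed to compound for 48 h; stained nuclei by imaging scaled within each plate; lower means fewer cells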
HSV augment primary fold: also measured in HSV augment; calls as there; fold increase; compound at 10 µM; measured here: primary screen fold increase 10 uM; tested in PC3 cells;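 GFP signal in the first replicate; 1 = infected wells without compound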
Numbers without * were called inactive; i = inactive; ? = inconclusive; / = not tested or not shown; & = joins results of further samples.

Below each SMILES – Insulin prom inh, Insulin prom inh cell count, HSV augment, HSV augment primary fold, GALR2 ag, RGS16-Gao HTS, PKD1 inh
> COc1cc(OC)cc(C(=O)NN2CCCCC2)c1
    -29, 48, i, 1.1, -2.4, 106, -1
> CC(=O)NC1=NN(C(C)=O)C(C)(c2ccc(Cl)s2)S1 (centres undefined)
    9, 162, i, 0.65, -0.5, 70, -5
> COc1ccc(Cn2ccc(=O)c(Cc3c(Cl)cccc3Cl)c2C)cc1
    -57, 95, i, 0.99, -1.7, 157, -16
> Cc1nnc(SCCC(=O)Nc2ccc(F)cc2)s1
    -6, 76, i, 1, -2.2, 104, -4
> O=C1CCC/C(=N/Nc2ccc(Cl)cc2)C1
    22, 122, i, 0.91, /, 106, -6
> COC(=O)c1cc(=O)[nH]c(SCc2cccc(C)c2)n1
    40, 82, /, /, 0.4, 109, 2
> O=C(N/C(=C\c1ccc(Br)cc1)c1nc2ccccc2[nH]1)c1ccco1
    /, /, i, 0.96, -0.8, 101, -5
> O=C(C(Cc1ccccc1)n1cccc1)N1CCc2ccccc21 (centres undefined)
    /, /, i, 1.1, -0.7, 86, 8
> N#CC1=C(N)N2C(=C(C#N)C1c1ccccc1)Sc1ccccc12 (centres undefined)
    /, /, i, 1.1, 0.6, 98, 8
> COc1ccc(NC(=O)CSc2ncn[nH]2)c([N+](=O)[O-])c1
    -8, 94, i, 0.9, -5.2, 102, -10
> O=C(COC(=O)c1ccc[nH]c1=O)Nc1cc(S(=O)(=O)N2CCCCC2)ccc1Cl
    /, /, i, 0.98, /, 98, 6
> Cc1nc(C(=O)NNC(=O)Nc2ccccc2)cs1
    /, /, i, 0.84, /, 100, /
> CC(=O)Nc1cc(NC(C)=O)cc(C(=O)NC(C)(C)C)c1
    -57, 192, i, 1.1, -0.8, 102, 9
> COc1ccccc1CN1C[C@@H]2C[C@@H](c3cccc(O)c3)N3CCC[C@@]23C1=O
    -44, 44, i, 0.95, /, 96, -1
> CCN1CCN(C(=O)CN(C)S(=O)(=O)c2ccc(Cl)cc2)CC1
    -48, 121, i, 0.93, -0.4, 102, 5
> Cc1ccc(CNc2ccc3c(c2)OCO3)cc1
    -441, 108, ?, /, -2.7, 89, -5
> NC1=NC(=Nc2cccc(Cl)c2)c2ccccc21
    46, 109, /, /, -0.2, 106, -1
> Cc1ccc(Cn2ccc(-c3cnc(-c4ccccc4)s3)n2)cc1
    -17, 122, /, /, 5.8, 104, -4
> COC(=O)c1cc(NC(=S)N2CCN(C(=O)C3CCCO3)CC2)cc(C(=O)OC)c1 (centres undefined)
    /, /, i, 1.1, /, 101, -7
> COc1ccc(C2/C(=C(/O)c3ccc(Cl)cc3)C(=O)C(=O)N2CCN2CCOCC2)c(OC)c1 (centres undefined)
    -36, 172, /, /, -1.9, 100, -1
> CCCc1cc(=O)[nH]c(Nc2ccc(Cl)cc2)n1
    12, 103, i, 0.91, /, 105, 0
> CC12CN(NC(=O)c3ccc(Cl)cc3)C3(C#N)CC1CCC23C (centres undefined)
    /, /, i, 1.1, /, 102, 4
> COc1ccccc1N1CCN(C(=O)/C=C/c2ccco2)CC1
    -23, 177, /, /, -0.5, 103, -5
> Cc1ccc(N(C(=O)Cn2nnc(-c3ccc(F)cc3)n2)C(C(=O)NC(C)(C)C)c2ccncc2)cc1 (centres undefined)
    26, 98, i, 0.94, /, 114, -5
> COc1ccc(/C(N)=N/OC(=O)CCCc2ccccc2)cc1OC
    -17, 78, i, 0.95, -1.0, 90, 3
> COc1cc2c(cc1OC)-c1nncn1C(C)(C)C2
    /, /, i, 0.9, -0.7, 99, -6
> CCC(=O)c1ccc(O)c(OC)c1
    /, /, i, 0.71&1, /, 101, -2
> Cc1cccc(OCC(=O)NCC(=O)n2nc(C)cc2C)c1
    -73, 135, i, 0.87, -0.9, 99, 1
> COc1ccc(NC(=O)[C@@H](NC(=O)c2ccccc2F)C(C)C)cc1S(=O)(=O)N1CCOCC1
    -50, 183, i, 0.93, /, 102, 0
> CC(=O)C1=C(O)C(=O)N(c2cccc(C(=O)O)c2)C1c1ccccc1F (centres undefined)
    /, /, i, 0.89, -0.5, 101, -8

Part of the list above, showing only RGS16-Gao HTS:
mol | RGS16-Gao HTS
N#CC1=C(N)N2C(=C(C#N)C1c1ccccc1)Sc1ccccc12 (centres undefined) | 98
COc1ccccc1N1CCN(C(=O)/C=C/c2ccco2)CC1 | 103
Cc1nnc(SCCC(=O)Nc2ccc(F)cc2)s1 | 104

The results go on:
Below each SMILES – Insulin prom inh, Insulin prom inh cell count, HSV augment, HSV augment primary fold, GALR2 ag, RGS16-Gao HTS, PKD1 inh
> Cc1ccc(C(=O)N/C(=C\c2cccs2)C(=O)NCCc2c[nH]c3ccccc23)cc1C
    -28, 82, i, 1, -1.4, 125, 1
> O=C(COc1ccc(S(=O)(=O)N2CCCC2)cc1)NCC1CCCO1 (centres undefined)
    /, /, i, 1, /, 112, -3
> O=C(Cc1cccc2ccccc12)Nc1ccc(N2CCOCC2)cc1
    /, /, i, 0.86, /, 116, -11
> COc1ccccc1NC(=S)N1CCC(NC(=O)NC23CC4CC(CC(C4)C2)C3)CC1
    /, /, i, 1.1, -3.0, 101, -4
> O=C(Nc1cccc(F)c1)c1ccc(S(=O)(=O)N2CCOCC2)cc1
    /, /, i, 0.87, -1.8, 112, -1
> CC(C)(C)c1cc(C(=O)NCc2cccnc2)ccn1
    /, /, i, 0.9, -0.6, 104, 3
> C/C(CCC12CC3CC(CC(C3)C1)C2)=N\NC(N)=S
    -41, 80, i, 1.1, -2.1, 93, 3
> CCOC(=O)c1cccc(C(=O)Oc2ccccc2)n1
    -58, 129, i, 0.89, -0.1, 97, 3
> Cc1ccc(NC(=O)Nc2ccnc(-c3cccnc3)n2)cc1
    23, 97, i, 0.61, /, 98, 7
> CCc1cc(-c2n[nH]c(C)c2-c2nc3ccccc3n2C)c(O)cc1O
    /, /, i, 0.88, /, 105, -2
> CCCCCCSc1cc(C)nc2ncnn12
    /, /, i, 0.81, /, 99, 5
> CC(=O)c1cc2c(cc1N/C(=N/S(=O)(=O)c1ccccc1)c1ccc(Cl)cc1)OCO2
    0, 127, i, 0.97, 0.5, 103, 6
> Cc1ccc([N+](=O)[O-])c(OCCCNCC(C)O)c1 (centres undefined)
    25, 82, i, 0.9, /, 106, -5
> Cc1ccc(S(=O)(=O)N2CCOCC2)cc1C(=O)NNC(=O)c1ccoc1C
    -20, 102, i, 1, /, 108, 9
> COC(=O)C(O)(CC(=O)Nc1ccccc1OC)C(F)(F)F (centres undefined)
    15, 84, i, 0.71, -1.6, 113, -5
> CN(C)CCN(C(=O)c1cccc(Cl)c1)c1nc2c(Cl)cccc2s1
    10, 103, i, 0.78, -1.2, 89, -6
> COc1cccc(OCCOCCOc2ccc(C)cc2[N+](=O)[O-])c1
    0, 112, i, 1, -0.1, 114, 6
> CN(C(=O)c1cccs1)c1ccc(OCC(=O)N2CCC(C(N)=O)CC2)cc1
    /, /, i, 0.97, /, 100, -6
> O=S(=O)(c1cccc(-c2csc(-c3cccnc3)n2)c1)N1CCCCC1
    -29, 108, i, 1, 0.6, 96, -3
> Cc1nnc(NCCO)c2ccccc12
    -56, 115, i, 0.8, -0.7, 98, -6
> CS(=O)(=O)N(Cc1ccc(C(=O)Nc2ccccc2Sc2ccccc2)cc1)c1ccccc1
    55, 114, i, 0.86, -1.9, 101, -4
> Brc1ccc(CSc2nnc3ccccn23)cc1
    0, 115, i, 0.87, /, 106, -2
> COc1ccc(OC)c(C2C(C(C)=O)=C(O)C(=O)N2c2ccc(F)cc2)c1 (centres undefined)
    -5, 130, i, 0.98, 0.2, 102, -9
> CCn1nnc(-c2ccccc2NC(=O)c2cc(OC)c(OC)c(OC)c2)n1
    /, /, i, 0.85, -1.4, 233, -6
> CCOc1ccc2cc(S(=O)(=O)N3CCOCC3)ccc2c1
    52, 125, i, 0.87, -1.9, 87, 4
> COc1ccc(-c2nn(C)c(=O)c3ccccc23)cc1CNC(=O)C1CCCCC1
    /, /, i, 0.71, /, 100, /
> O=C(COC(=O)c1cnccn1)c1ccc(Br)cc1
    /, /, i, 0.86, -2.7, 97, 8
> O=c1nccc(SCc2ccc(Cl)cc2Cl)[nH]1
    /, /, i, 0.9, /, 100, /
> O=C1Nc2ccccc2/C1=C\c1cccn1-c1ccc(OC(F)(F)F)cc1
    3, 123, i, 0.87, -3.1, 86, 2
> Cc1ccc(C(=O)NCCCN2CCOCC2)o1
    -7, 122, i, 0.98, -2.5, 122, -6

In the list so far, two contain a CF3 group.
Below each SMILES – Insulin prom inh, Insulin prom inh cell count, HSV augment, HSV augment primary fold, GALR2 ag, RGS16-Gao HTS, PKD1 inh
> COC(=O)C(O)(CC(=O)Nc1ccccc1OC)C(F)(F)F (centres undefined)
    15, 84, i, 0.71, -1.6, 113, -5
> O=C1Nc2ccccc2/C1=C\c1cccn1-c1ccc(OC(F)(F)F)cc1
    3, 123, i, 0.87, -3.1, 86, 2

(next part)
Below each SMILES – Insulin prom inh, Insulin prom inh cell count, HSV augment, HSV augment primary fold, GALR2 ag, RGS16-Gao HTS, PKD1 inh
> Cc1nccn1S(=O)(=O)c1cc([N+](=O)[O-])ccc1Cl
    -12, 123, i, 1.1, -0.6, 109, -5
> C[C@@H]1C(=O)O[C@@H]2CC34[C@H]5C[C@@H](C(C)(C)C)C36[C@H](OC(=O)[C@@H]6O)OC4(C(=O)O5)[C@@]12O (some centres undefined)
    5, 117, i, 0.89, -0.5, 110, -8
> CCOC(=O)C1C2C=CC3(CN(Cc4ccco4)C(=O)C13)O2 (centres undefined)
    -38, 54, i, 0.96, -0.7, 188, -5
> CC(=O)c1c(C)[nH]c(C(=O)Nc2c(C)n(C)n(-c3ccccc3)c2=O)c1C
    -100, 93, i, 0.99, -1.5, 99, -9
> CCN(CC)S(=O)(=O)c1ccc(C(=O)NCCCN=C2NS(=O)(=O)c3ccccc32)cc1
    -235, 124, i, 0.78, -0.1, 101, 1
> C=CCNC(=O)c1c(C(F)(F)F)nn(C)c1Cl
    /, /, i, 0.98, /, 103, -6
> COc1ccc2c(c1)-c1c(ssc1=S)C(C)(C)N2C(=O)CSC1=NCCS1
    60, 103, i, 0.71, -3.5, 104, -5
> Cc1cc2cc(CNC(=S)Nc3ccc(OC(F)F)cc3)ccc2[nH]1
    46, 108, i, 1.2, -1.9, 102, -6
> COC(=O)NC1CSCC1OC(=O)c1ccc(Br)cc1 (centres undefined)
    51, 125, i, 0.95, -4.3, 106, -4
> COc1ccc(NC(=O)O/N=C2/CCCc3ccc(OC)cc32)cc1
    /, /, i, 0.72, -3.7, 99, 7
> CC(O)(C#CCN1CCCC1)c1ccccc1 (centres undefined)
    45, 130, i, 1.1, -1.6, 107, -3
> CC(C)(C)C(=O)NC(=O)Nc1ccccc1C(F)(F)F
    /, /, i, 0.96, /, 100, /
> COCCNC(=O)CSc1nc2cc(OC)c(OC)cc2c(=O)n1CCc1ccc(S(N)(=O)=O)cc1
    0, 5, /, /, /, 102, -3
> COC(=O)C1=C(C(=O)c2ccccc2)C(c2cccs2)n2nnnc2N1 (centres undefined)
    3, 98, i, 1, 1.1, 103, -1
> O=C(Nc1ccc2c(c1)OCCO2)c1ccc(Cl)c(S(=O)(=O)N2CCOCC2)c1
    -16, 101, i, 1.2, -3.6, 104, -5
> CCN(CC)CCCN=C(N)N
    /, /, i, 1, /, 93, /
> Cc1cccc(C)c1NCc1nnc(SCC(=O)Nc2nc(-c3ccccc3)cs2)n1-c1ccccc1
    -46, 147, i, 0.67, -1.1, 106, -11
> Cc1cc(-c2ccccc2)nc(N(C)C)c1S(C)(=O)=O
    /, /, i, 0.83, /, 100, 7
> O=C(O)c1ccccc1Sc1ncnc2sccc12
    /, /, i, 0.93, /, 110, /
> COc1ccc(CN2CC(C(=O)NCCCN3CCCCCC3)CC2=O)cc1 (centres undefined)
    -20, 98, i, 0.91, -2.0, 103, -16
> NC(=O)C1CCN(C(=O)c2ccc3c(=O)n(Cc4ccco4)c(SCC(=O)c4ccccc4)nc3c2)CC1
    -25, 94, i, 0.91, /, 109, 1
> Cc1ccc(CSc2ncnc3ccccc23)cc1
    -11, 94, i, 1.1, /, 103, -3

Arranged by molecular weight (falling): part of the list above
Below each SMILES – Insulin prom inh, Insulin prom inh cell count, HSV augment, HSV augment primary fold, GALR2 ag, RGS16-Gao HTS, PKD1 inh
> O=C(Nc1ccc2c(c1)OCCO2)c1ccc(Cl)c(S(=O)(=O)N2CCOCC2)c1
    -16, 101, i, 1.2, -3.6, 104, -5
> O=C(N/C(=C\c1ccc(Br)cc1)c1nc2ccccc2[nH]1)c1ccco1
    /, /, i, 0.96, -0.8, 101, -5
> COC(=O)NC1CSCC1OC(=O)c1ccc(Br)cc1 (centres undefined)
    51, 125, i, 0.95, -4.3, 106, -4
> CCc1cc(-c2n[nH]c(C)c2-c2nc3ccccc3n2C)c(O)cc1O
    /, /, i, 0.88, /, 105, -2

Source: PubChem BioAssay
